HCMV NEC inh: cytomegalovirus nuclear egress complex inhibition | HTRF UL50-UL53 interaction, normalized percent inhibition | inhibition, % (test concentration not listed) | 0.15% of 190,000 active;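 active = both replicates at 50% or more, plus weaker picks with an unusually low signal ratio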;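 also: stock transfer was 100 nL into about 20 µL; 0% = negative control wells and 100% = wells with untagged competitor protein; inactives centre near -12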
GIV-Gai inh: GIV-Galpha-i interaction inhibition; 0.42% of 210,000 active; percent of control (FP), % (test concentration not listed); Galpha-i3/FITC-GIV peptide fluorescence polarization, 90 min; hits give low values; scaled: aluminum fluoride 0%, vehicle 100%; P08753;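 active = replicate mean at 85% of control or lower, very high polarization wells dropped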;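 also: wells of about 15 µL received 100 nL stock; the first replicate is given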
Target sequence (P08753 whole entry, looked up): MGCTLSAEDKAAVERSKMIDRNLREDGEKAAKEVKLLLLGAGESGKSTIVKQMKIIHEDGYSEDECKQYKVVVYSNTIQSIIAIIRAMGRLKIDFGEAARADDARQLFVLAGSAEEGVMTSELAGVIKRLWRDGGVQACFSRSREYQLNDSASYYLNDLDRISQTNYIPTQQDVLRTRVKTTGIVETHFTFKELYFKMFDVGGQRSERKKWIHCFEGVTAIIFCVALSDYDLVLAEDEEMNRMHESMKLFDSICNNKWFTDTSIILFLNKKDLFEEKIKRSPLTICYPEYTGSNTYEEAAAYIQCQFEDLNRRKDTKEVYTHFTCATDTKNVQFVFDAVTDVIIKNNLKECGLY
Sa growth inh: blocks Staphylococcus aureus growth. S. aureus RN4220 growth, OD600, 20 h, 42 °C; hits give low values. relative growth, % (no concentration beside the values). 0.53% of 170,000 active. AID 720641;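 active = growth at 42 °C up to 50% and 20 or more points under that at 30 °C, or under 10% at both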;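 also: 300 nL library stock went into each well; scaled to the means of positive and negative controls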
Sa growth inh second temp: also measured in Sa growth inh; calls as there; relative growth, %; measured here: growth at 30 °C;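 optical density after 20 h as mean of two plates; 100% = untreated growth and lower means inhibition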
Numbers without * were called inactive; . = not tested or not shown. Not a hit list; about 0.82% have a hit in one of these screens.

entry	molecule	Sa growth inh second temp	Sa growth inh	GIV-Gai inh	HCMV NEC inh
1	O=C(Nc1ccc(-c2cc3ccccc3o2)cc1)C1CC1	99	110	99	-31
2	Cc1ccc(C(=O)Cn2nnc(-c3ccccc3Cl)n2)cc1	85	103	.	-8
3	CCOC(=O)c1ccc2c(c1)c(C)c(C)n2Cc1ccccc1	102	101	100	.
4	Cc1cc(C)n2ncc(C(=O)Nc3c(C)n(C)n(-c4ccccc4)c3=O)c2n1	.	.	100	-18
5	CC(C)=CC(=O)CC(O)(c1ccccc1)c1ccccc1	95	89	94	.
6	O=C(O)c1cc(N2CCN(c3ccccc3F)CC2)ccc1NS(=O)(=O)c1ccc(F)cc1	.	.	95	8
7	Cc1cc(C)cc(N(CC(=O)NC2CCCCC2)S(=O)(=O)c2c(C)nn(C)c2C)c1	.	.	97	4
8	COc1ccc(C2C(C(=O)NCc3ccccn3)c3cc(OC)c(OC)cc3C(=O)N2C)cc1OC (centres undefined)	90	86	104	-27
9	Cc1ccc(S(=O)(=O)c2cnc(SC(C)C(=O)Nc3ccccc3)[nH]c2=O)cc1 (centres undefined)	84	104	103	3
10	COc1ccc(N2CCN(C(=O)c3sc4ncn(CC(=O)N5CCCCC5)c(=O)c4c3C)CC2)cc1	86	87	99	-23
11	O=C(O)COc1ccccc1/C=N/NC(=O)C1CC1	89	86	.	-11
12	Cc1sc2ncnc(Sc3ncnc4sccc34)c2c1C	91	89	.	-10
13	CCCn1c(=O)n(-c2ccccc2Cl)c(=O)c2sc3ccccc3c21	86	107	103	-43
14	CC(C)(C)OC(=O)N1CCC(CNC(=O)c2ccno2)CC1	90	95	106	-37
15	CCOc1cc(C2NC(=O)NC(C)=C2C(=O)OCc2ccc3c(c2)OCO3)ccc1O (centres undefined)	.	.	98	0
16	COc1ccccc1Nc1cc(N2CCCCC2)c2nonc2c1[N+](=O)[O-]	.	.	106	-17
17	O=C1C2(c3ccccc3)CN(CCCO)CC1(c1ccccc1)CN(CCCO)C2	96	89	102	.
18	CCN(CC)C(=O)CSc1nc2cc(OC)c(OC)cc2c(=O)n1Cc1ccc(Cl)cc1	87	99	95	-1
19	Cc1cccc(NC(=S)N2CCOC2c2ccsc2)c1 (centres undefined)	88	95	97	-15
20	N#Cc1cc(Cl)c2c(c1)OCCO2	87	70	.	-20

(cont.)
entry	molecule	Sa growth inh second temp	Sa growth inh	GIV-Gai inh	HCMV NEC inh
21	NC(=O)C1CCN(CC(O)COc2ccc3c(c2)OCO3)CC1 (centres undefined)	95	114	105	-12
22	O=C(NCc1nc(-c2ccc(C(F)(F)F)cc2)no1)c1ccccc1C(F)(F)F	85	95	103	-25
23	N#CCCNCc1ccco1	93	113	.	-20
24	CCc1cccc(C)c1Nc1c(-c2cccc(O)c2)nc2sccn12	75	86	109	10
25	CCSc1nnc2[nH]c(=O)c(C)c(C)n12	87	102	107	-8
26	COC(=O)C1=C(C)N(Cc2ccccc2)C(=O)NC1c1ccccc1 (centres undefined)	74	90	99	-18
27	COc1cc(S(=O)(=O)N(CC(=O)Nc2c(C)cccc2C)CC2CCCO2)ccc1-n1cnnn1 (centres undefined)	92	89	98	-33
28	CC1=NOC(=O)/C1=C/c1ccc(N2CCOCC2)cc1	91	98	100	.
29	COc1ccc(C(=O)CN2CCN(S(=O)(=O)c3ccc(C(C)C)cc3)CC2)cc1	82	105	103	.
30	C=CCSc1nc2c(c(=O)n1C1CCOC(C)(C)C1)C1(CCCCC1)Cc1ccccc1-2 (centres undefined)	.	.	101	-8
31	C=CCc1ccccc1Oc1cc(OC)nc(N)n1	98	107	.	-1
32	Cc1cc(C)c2sc(N(Cc3cccnc3)C(=O)CCS(=O)(=O)c3ccccc3)nc2c1	92	119	105	.
33	COc1ccc(Cl)cc1Nc1c(C(=O)N2CCOCC2)cnc2ccccc12	.	.	103	-26
34	Cc1nnc(SCC(=O)NC2CCCCC2)[nH]c1=O	92	90	107	.
35	Cc1ccc2c(Sc3ccccc3)c(C(=O)NCc3ccccc3F)[nH]c2c1	91	118	99	-16
36	Cc1cc(C)c(C(=O)COC(=O)C2=NNC(=O)CC2)c(C)c1	95	87	.	-5
37	CCOc1ccccc1N1CCN(CC(=O)Nc2ccc3c(c2)OC(F)(F)O3)CC1	99	110	.	-16
38	Cn1cc(-c2cc3n(n2)CCC(=O)N3CCCC(=O)NCc2ccc(Cl)cc2)c2ccccc21	88	89	98	.
39	CC(=O)N1CCCC1c1nc2ccccc2n1CCC(C)C (centres undefined)	.	.	101	-21
40	Cc1onc(-c2ccccc2Cl)c1C(=O)N1CCN(C)CC1	92	83	.	-6

Reformatted: entries from further up.
Under each structure: Sa growth inh second temp	Sa growth inh	GIV-Gai inh	HCMV NEC inh
[21] NC(=O)C1CCN(CC(O)COc2ccc3c(c2)OCO3)CC1 (centres undefined)
 : 95	114	105	-12
[22] O=C(NCc1nc(-c2ccc(C(F)(F)F)cc2)no1)c1ccccc1C(F)(F)F
 : 85	95	103	-25
[23] N#CCCNCc1ccco1
 : 93	113	.	-20
[24] CCc1cccc(C)c1Nc1c(-c2cccc(O)c2)nc2sccn12
 : 75	86	109	10
[25] CCSc1nnc2[nH]c(=O)c(C)c(C)n12
 : 87	102	107	-8
[26] COC(=O)C1=C(C)N(Cc2ccccc2)C(=O)NC1c1ccccc1 (centres undefined)
 : 74	90	99	-18
[27] COc1cc(S(=O)(=O)N(CC(=O)Nc2c(C)cccc2C)CC2CCCO2)ccc1-n1cnnn1 (centres undefined)
 : 92	89	98	-33
[28] CC1=NOC(=O)/C1=C/c1ccc(N2CCOCC2)cc1
 : 91	98	100	.
[29] COc1ccc(C(=O)CN2CCN(S(=O)(=O)c3ccc(C(C)C)cc3)CC2)cc1
 : 82	105	103	.
[30] C=CCSc1nc2c(c(=O)n1C1CCOC(C)(C)C1)C1(CCCCC1)Cc1ccccc1-2 (centres undefined)
 : .	.	101	-8
[31] C=CCc1ccccc1Oc1cc(OC)nc(N)n1
 : 98	107	.	-1
[32] Cc1cc(C)c2sc(N(Cc3cccnc3)C(=O)CCS(=O)(=O)c3ccccc3)nc2c1
 : 92	119	105	.
[33] COc1ccc(Cl)cc1Nc1c(C(=O)N2CCOCC2)cnc2ccccc12
 : .	.	103	-26
[34] Cc1nnc(SCC(=O)NC2CCCCC2)[nH]c1=O
 : 92	90	107	.
[35] Cc1ccc2c(Sc3ccccc3)c(C(=O)NCc3ccccc3F)[nH]c2c1
 : 91	118	99	-16
[36] Cc1cc(C)c(C(=O)COC(=O)C2=NNC(=O)CC2)c(C)c1
 : 95	87	.	-5
[37] CCOc1ccccc1N1CCN(CC(=O)Nc2ccc3c(c2)OC(F)(F)O3)CC1
 : 99	110	.	-16

Full records, quoted from the list:
Shown for CC(C)=CC(=O)CC(O)(c1ccccc1)c1ccccc1 : Sa growth inh second temp: 95; Sa growth inh: 89; GIV-Gai inh: 94; HCMV NEC inh: .
Shown for O=C(O)c1cc(N2CCN(c3ccccc3F)CC2)ccc1NS(=O)(=O)c1ccc(F)cc1 : Sa growth inh second temp: .; Sa growth inh: .; GIV-Gai inh: 95; HCMV NEC inh: 8

(continued)
entry	molecule	Sa growth inh second temp	Sa growth inh	GIV-Gai inh	HCMV NEC inh
41	CCc1ccc2c(c1)C(NC(C)=O)C(=O)N2C (centres undefined)	81	75	100	.
42	Cc1ccc2nc(C(F)(F)F)[nH]c2c1	81	90	.	5
43	CC(CCc1ccccc1)NC(=O)Cc1nnc(-c2ccc(Br)cc2)o1 (centres undefined)	96	111	107	-9
44	Cn1c(=O)n(C)c2cc(CN)ccc21	87	101	104	.
45	CCC(C)Sc1nc2ccccc2c(=O)[nH]1 (centres undefined)	85	89	106	.
46	S=C(NNc1ccc(Cl)nn1)NC1CC2CCC1C2 (centres undefined)	96	101	.	13
47	O=S(=O)(NCC1CCCO1)c1ccc(Br)cc1 (centres undefined)	83	95	.	-6
48	CCOc1ccc(NC(=O)CSC2=Nc3ccccc3C3=NC(CC(=O)NCc4cccs4)C(=O)N23)cc1 (centres undefined)	82	105	104	.
49	COc1ccc(NC(=O)CCCS(=O)(=O)c2nc(-c3ccccc3OC)cc(C(F)(F)F)n2)c(OC)c1	80	77	106	-22
50	COc1ccc(OC)c(/C=C(/C#N)c2nc(-c3cc4c(ccc5ccccc54)oc3=O)cs2)c1	.	.	100	-19
51	COc1cccc(CNC(=O)CCc2nc(-c3ccc(C)cc3)no2)c1	110	106	111	17
52	CCOc1ccccc1NC(=O)Cn1c(=O)n(-c2ccccc2)c(=O)c2c1c1cc(C)ccc1n2C	92	129	113	.
53	CC1CN(C(=O)Cc2ccc(Cl)cc2)c2ccccc2NC1=O (centres undefined)	.	.	98	-4
54	O=C(CCC(=O)N1Cc2ccccc2Oc2ncccc21)NCCc1ccc(Cl)cc1	.	.	108	-15
55	CC1=C(C(=O)OC(C)C)C(c2sccc2C)NC(=O)N1 (centres undefined)	88	106	108	13
56	COC(=O)c1scc(-c2ccc(C)cc2)c1S(=O)(=O)N1CCN(c2cccc(Cl)c2)CC1	79	80	98	.
57	O=C(COc1ccc(Cl)cc1)N=Nc1c(O)n(CN2CCCCCC2)c2ccccc12	76	99	103	-32
58	CN(C)CCNC(=O)c1cccc(S(=O)(=O)Nc2ccccc2Cl)c1	98	97	.	-9
59	Cc1c(C(=O)N2CCC(C(N)=O)CC2)oc2ccc(Br)cc12	94	111	.	-20
60	COc1ccc(-c2[nH]c(-c3ccccc3)nc2SCC(=O)NC2CCCC2)cc1	90	113	99	-8

Next section:
entry	molecule	Sa growth inh second temp	Sa growth inh	GIV-Gai inh	HCMV NEC inh
61	COc1ccccc1CN1C(=O)CN(C2CCCCCC2)C(=O)C1c1ccc(F)cc1 (centres undefined)	88	100	103	.
62	O=C(Cc1csc(-c2cccs2)n1)Oc1ccc2c(c1)CCC2	96	95	.	-12
63	O=C(Cn1ccn(-c2cccc(Cl)c2)c(=O)c1=O)c1ccc(F)cc1	91	122	98	-34
64	N#Cc1ccc(C=Nc2ccc(S(N)(=O)=O)cc2)cc1	76	62	.	9
65	COc1cccc(CC(=O)N(Cc2ccc3c(c2)OCO3)C2CCCC2)c1	66	79	.	11
66	Cc1ccc(NC(=O)C2CCCN(S(=O)(=O)c3cn(C)cn3)C2)nc1 (centres undefined)	.	.	106	-23
67	O=S(=O)(NCc1cccs1)c1ccc(Br)cc1	105	109	.	-6
68	COc1ccc(-c2nnc(SCC(=O)NC(C)(C)C)n2C(C)C)cc1	99	104	.	7
69	Cc1ccc2nc(NCc3ccccc3Cl)c3nnnn3c2c1	86	92	107	-9
70	Cc1cc(C)cc(OCC(=O)NCc2ccc3c(c2)OCO3)c1	107	126	103	-14
71	CCc1ccc(C2=CC(c3cccc(OC)c3OC)n3c(nc4ccccc43)N2)cc1 (centres undefined)	72	115	107	.
72	Cc1cccc(CCNC(=O)c2sc3nc4n(c(=O)c3c2C)CCCC4)c1	95	127	101	-27
73	COc1ccc(NC(=O)c2cc3ccc(O)cc3o/c2=N\O)cc1	84	89	108	-22
74	CC1(C(=O)NC2CCCCC2)Cn2c(cc3occc32)C(=O)N1Cc1ccccc1 (centres undefined)	.	.	103	-24
75	O=C1c2ccccc2C(=O)c2c1oc1c3c(ccc21)OCN(C1CCS(=O)(=O)C1)C3 (centres undefined)	1.0*	7.6*	.	-34
76	c1ccc(-c2noc3c(NCc4ccc5c(c4)OCO5)ncnc23)cc1	.	.	103	-17
77	Cc1ccccc1NC(=O)CCc1c(C)nn(-c2ccc(N3CCCCC3)nn2)c1C	91	89	98	.
78	COc1ccc(CNC(=O)c2ccc3c(c2)N(Cc2ccccc2)CCS3)cc1	85	112	107	-15
79	CCOC(=O)N1CCN(S(=O)(=O)N2CCCC(C(=O)NCCC(C)C)C2)CC1 (centres undefined)	80	95	99	-31
80	Cc1cccc(NC(=O)C2CCCN(S(=O)(=O)c3cccc4nonc34)C2)c1 (centres undefined)	89	91	102	-11

The listing continues.
entry	molecule	Sa growth inh second temp	Sa growth inh	GIV-Gai inh	HCMV NEC inh
81	COc1cccc(C(=O)COc2cc(O)c3c(=O)cc(-c4ccccc4)oc3c2)c1	.	.	95	-11
82	CCOC(=O)C1=C(C)N=c2s/c(=C\c3ccc(OC(C)=O)c(OCC)c3)c(=O)n2C1c1ccc(OC)cc1 (centres undefined)	.	.	107	-18
83	COc1cc2[nH]c(=S)nc(NCCC(C)C)c2cc1OC	76	90	114	.
84	COc1ccccc1NC(c1ccc(Cl)cc1)c1nnc(-c2cccc(F)c2)o1 (centres undefined)	92	112	103	-11
85	COC(=O)c1cccc(NC(=O)Cc2cccs2)c1C	97	97	101	-12
86	COc1ccc(/C=C2\SC(=O)N(C)C2=O)c2ccccc12	85	102	106	12
87	O=C(O)CC(C(=O)O)C1SC(=O)NC1=O (centres undefined)	99	86	.	-2
88	CN(C)c1ccc(-c2nc3ncccn3c2Nc2ccccc2)cc1	.	.	104	-40
89	Oc1ccc(NCc2ccc(Br)cc2)cc1	74	82	97	-1
90	CCc1ccc(NC(=O)Nc2cc3[nH]c(=O)[nH]c3cc2C)cc1	.	.	103	-18
91	Cc1ccc(CNc2ncnc3c2nnn3C)cc1	82	97	93	.
92	N#Cc1ccc(-c2cccnc2)n(CC(=O)N2CC(=O)Nc3ccccc32)c1=O	76	104	107	-8
93	O=C(OCc1cc(=O)oc2cc(O)ccc12)c1cccnc1Cl	95	96	.	-26
94	COc1ccc(OC)c(N2CC(c3nc4ccccc4n3Cc3ccccc3F)CC2=O)c1 (centres undefined)	93	101	101	0

Assay outcomes deposited in PubChem BioAssay by ICCB-Longwood Screening Facility, Harvard Medical School.
